Screens from PubChem.
Vif A3G: inhibitors of Vif binding to APOBEC3G peptide, primary screen, biochemical, TR-FRET, GST-Vif 1-94, biotin-A3G peptide, dose response retest (AID 1117319) | TR-FRET GST-Vif / biotin-A3G peptide binding; higher % means a stronger effect; test concentration not given here; strong numbers were not always called active | inhibition, %, or IC50 in µM where a hit was titrated | 260,000 tested, 0.57% active;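 active = above the screen mean plus three standard deviations and confirmed in dose response; inconclusive = results disagree or hit not tested in dose response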;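 also: Vif residues 1-94 fused to GST binding biotinylated APOBEC3G peptide 110-148; 0% = full assay without inhibitor and 100% = GST in place of GST-Vif; retest series ran down from 100 µM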
AF4-AF9 inh: MLL-AF4/AF9 protein interaction inhibition | P42568 | AlphaScreen, biotin-AF4 peptide binding to FLAG-AF9 | inhibition, % at 10 µM | 350,000 tested, 0.47% active;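 active = every replicate reaching a set inhibition limit, whatever the replicate mean, cut at about 25% in these data; inconclusive = mean inhibition reaches that limit but some replicates miss it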;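 also: 0% = plate neutral control median and 100% = total signal loss; the record names both 10 and 1 µM as test concentration; the first replicate is given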
Target sequence (P42568 whole entry, looked up): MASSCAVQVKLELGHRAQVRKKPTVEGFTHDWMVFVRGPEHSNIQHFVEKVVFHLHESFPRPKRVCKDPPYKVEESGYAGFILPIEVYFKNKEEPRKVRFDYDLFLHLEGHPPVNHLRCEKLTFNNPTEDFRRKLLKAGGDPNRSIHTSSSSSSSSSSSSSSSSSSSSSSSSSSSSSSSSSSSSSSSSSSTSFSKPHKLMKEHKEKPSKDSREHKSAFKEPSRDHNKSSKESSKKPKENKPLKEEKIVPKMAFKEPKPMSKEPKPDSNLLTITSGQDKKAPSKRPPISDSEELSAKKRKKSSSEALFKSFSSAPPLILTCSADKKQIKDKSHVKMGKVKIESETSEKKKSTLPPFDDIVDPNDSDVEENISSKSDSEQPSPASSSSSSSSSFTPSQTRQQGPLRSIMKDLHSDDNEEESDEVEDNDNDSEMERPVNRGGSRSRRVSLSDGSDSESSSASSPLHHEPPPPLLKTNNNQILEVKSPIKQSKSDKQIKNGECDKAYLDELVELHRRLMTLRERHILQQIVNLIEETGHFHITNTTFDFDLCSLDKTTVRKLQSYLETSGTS
UCH37 inh: blocks the human deubiquitinase UCH37; Q9Y5K5; purified proteasome/UCH37, Ub-AMC cleavage fluorescence; inhibition, % (no concentration beside the values); 330,000 tested, 0.33% active; AID 588478;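 active = mean of two replicates above 20%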;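 also: 0% = compound-free wells with enzyme and 100% = wells lacking proteasome; stock transfer was 100 nL into about 20 µL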
Target sequence (Q9Y5K5 whole entry, looked up): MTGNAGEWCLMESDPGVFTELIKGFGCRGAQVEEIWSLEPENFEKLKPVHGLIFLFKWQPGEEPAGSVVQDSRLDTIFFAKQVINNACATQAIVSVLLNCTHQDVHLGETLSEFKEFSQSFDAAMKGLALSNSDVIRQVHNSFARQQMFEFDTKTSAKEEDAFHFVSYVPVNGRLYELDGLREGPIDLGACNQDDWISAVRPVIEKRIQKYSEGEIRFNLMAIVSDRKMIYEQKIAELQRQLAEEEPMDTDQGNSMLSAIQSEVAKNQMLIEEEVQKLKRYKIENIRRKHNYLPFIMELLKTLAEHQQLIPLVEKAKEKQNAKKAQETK
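Assay system: Proteasome-bound UCH37. Buffer or medium: pH 7.4 Tris-HCl (50 mM) with ovalbumin, ATP-MgCl2, DTT. Incubation: 30 min preincubation with enzyme, 25 min cleavage at room temperature. Measured by: fluorescence, ex 355 nm, em 460 nm. Read-out basis: percent inhibition. Control set: wells without proteasome as full block, compound-free enzyme plus substrate as uninhibited.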
HNF4A DNA FP: change in binding of human HNF4 alpha to DNA | P41235 | HNF4a-FITC DNA binding, fluorescence polarization, 1 h | activity change, % at 10 µM | 360,000 tested, 0.3% active | AID 1224865; in the data active = activity change above about 30%, passing the limit was not always enough;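 also: controls were the assay level and a saturating level of protein; the project sought stronger binding though the title names inhibitors; some compounds called inactive have numbers as strong as hits; positive values seem to mean higher polarization but the record does not say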
FGF22 binding: shifts melting point of recombinant human FGF22; recombinant FGF22 thermal shift, SYPRO orange fluorescence; percent of sucrose octasulfate shift, DMSO zero; calls only at 9.99 µM; Q9HCT0; 340,000 tested, 1.5% active; AID 651658;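 active = melting point raised past a set limit in the mean and every replicate; inconclusive = no clear call; three in four hits are not shown here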
Target sequence (Q9HCT0 whole entry, looked up): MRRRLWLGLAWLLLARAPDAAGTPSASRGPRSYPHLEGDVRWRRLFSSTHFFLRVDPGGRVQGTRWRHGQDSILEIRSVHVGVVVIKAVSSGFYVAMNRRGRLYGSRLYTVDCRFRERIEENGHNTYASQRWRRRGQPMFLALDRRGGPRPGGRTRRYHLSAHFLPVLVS
RanGTP-Impb inh: inhibitors of RanGTP-importin-beta interaction, primary screen, biochemical, FRET, CFP-Ran, YFP-importin-beta, homogeneous; AID 2216; inhibition, % (concentration not given with the values); cell-free CFP-Ran/YFP-importin-beta FRET ratio; 300,000 tested, 1.1% active;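 active = most replicates above 15%; inconclusive = exactly half above 15%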;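 also: 0% = DMSO wells and 100% = Ran loaded with GDP instead of GTP; wells of about 40 µL received 100 nL stock; the first replicate is given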
Ecoli growth: E. coli growth inhibition. Escherichia coli growth, OD600, 23 h; hits give low values. OD600 absorbance (concentration not given with the values). 330,000 tested, 0.21% active;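 active = OD600 absorbance below the run mean of sample wells minus 3.6 SD, in any replicate, cut at about 0.56 in these data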;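 also: stock transfer was 300 nL into about 60 µL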
The depositor's hits bear a star; i = inactive; ? = inconclusive; . = no result given; + = active, no number; & = joins results of further samples.

SMILES | UCH37 inh | AF4-AF9 inh | Vif A3G | RanGTP-Impb inh | HNF4A DNA FP | FGF22 binding | Ecoli growth
CCOC(=O)c1ccc(N2C(=O)CC(NC3CCN(C(=O)c4cccc(Cl)c4)CC3)C2=O)cc1 (stereo unspecified) | 0.9 | . | -6% | 2.1 | . | . | 0.76
COc1ccc(CNC(=O)C(=O)N2CCC3(CC2)OCCN3S(=O)(=O)c2ccc(C)cc2)cc1 | 2.6 | -1.4 | -4% | -2.9 | 0.6 | i | 0.72
COc1ccc(-c2cc(CNC(=O)CN3CCN(C)CC3)on2)cc1 | 4.8 | . | 11% | ? | -1.4 | . | 0.69
c1ccc(Nc2nc3ccccc3[nH]2)nc1 | 0.6 | . | 0% | 5.0 | 0.5 | . | 0.64
COc1ccc(Nc2ccc(N3C(=O)CCCC3=O)cc2[N+](=O)[O-])c(OC)c1 | 6.1 | . | . | 1.7 | 1.9 | . | 0.69
CCN(CC)S(=O)(=O)c1ccc(C(=O)N2CCN(C(=O)c3ccco3)CC2)cc1 | 3.6 | 0.8 | -9% | . | -1.5 | i | 0.67
C=CCOc1nc2c(c(=O)n(C)c(=O)n2C)n1Cc1ccc(Cl)cc1 | 3.7 | . | -2% | 1.8 | 4.0 | . | 0.76
O=C(Nc1ccc(-n2cnnn2)cc1)c1cccc(S(=O)(=O)N2CCCC2)c1 | 1.7 | -2.5 | 3% | . | 1.5 | i | 0.65
COc1ccc(Br)c(C(=O)OCC(=O)N2CCc3ccccc32)c1 | 0.3 | -3.3 | . | . | 2.9 | i | 0.69
CCOC(=O)Nc1nc(C)c(C(=O)c2ccc(Cl)cc2)s1 | 5.6 | . | -20% | 1.7 | 3.4 | . | 0.74
CC(C)CC(NC(=O)C1CCCN1C(=O)OC(C)(C)C)C(=O)NCC(N)=O (stereo unspecified) | 1.1 | -1.8 | 17% | 3.5 | -1.1 | . | 0.7
Cn1c(Cc2ccccc2)nnc1SCC(=O)N1CCOCC1 | -2.0 | . | 3% | -3.1 | -1.6 | . | 0.68
O=C(N/N=C/c1ccc2ncccc2c1)c1cccc([N+](=O)[O-])c1 | . | -5.8 | . | 5.1 | -0.9 | i | .
CN(C)S(=O)(=O)c1ccc(NC=C(C#N)C#N)cc1 | -1.6 | -0.1 | 13% | 8.5 | 0.3 | i | 0.7
COc1ccc(NC(=O)COC(=O)c2ccc(S(=O)(=O)N3CCCCCC3)cc2)c(OC)c1 | -2.3 | 1.8 | 8% | . | 3.3 | i | 0.71
Cc1ccc(S(=O)(=O)N2CCCCC2)cc1NC(=O)c1cccs1 | 2.1 | 4.4 | ? | . | 2.4 | i | 0.63
CNCC(O)COc1cccc(OC)c1 (stereo unspecified) | 6.2 | 2.0 | . | -1.4 | -1.6 | . | 0.69
Cc1ccc(-c2nc(C=Nc3ccc(O)cc3)c(O)o2)cc1 | 5.2 | -0.9 | . | 22* | 4.7 | i | 0.69
O=C(COc1ccccc1[N+](=O)[O-])N(Cc1cccc(Br)c1)C1CCS(=O)(=O)C1 (stereo unspecified) | 3.5 | 0.8 | . | 4.8 | 1.9 | i | 0.67
O=C1C2CCCN2C(c2ccccc2)N1c1cccc(Cl)c1 (stereo unspecified) | 0.6 | -2.5 | -1% | ? | 1.1 | i | 0.65
O=C(NCCN1CCOCC1)c1ccccc1N1C(=O)[C@@H]2Cc3c([nH]c4ccccc34)C(c3ccccc3)N2C1=O (stereo partly specified) | -1.6 | 2.9 | . | -0.6 | -1.5 | i | 0.69
N#CC(C#N)=C1C(=O)N(CCN2CCOCC2)c2ccccc21 | 8.2 | -0.9 | 19% | 3.6 | -0.2 | i | 0.66
O=C(O)c1cc(S(=O)(=O)Nc2ccc3cn[nH]c3c2)ccc1Br | 1.3 | 0.8 | 13% | . | -3.4 | i | 0.62
CC(=O)c1ccc(N2CCN(C(=S)NCc3ccco3)CC2)cc1 | 1.3 | -0.4 | -3% | 1.7 | 1.8 | i | 0.62
COc1nccc(-c2ccc(F)cc2)c1C#N | 5.4 | -3.0 | -3% | 0.7 | -4.6 | . | 0.76
C=CCOC(=O)/C(=C\c1ccc(OC)cc1)NC(=O)c1ccco1 | 1.7 | . | 5% | -1.0 | -2.1 | . | 0.7
CC(C)(C)SCCNC(=O)CN(c1ccccc1)S(=O)(=O)c1ccccc1 | 1.1 | -0.3 | -2% | -2.4 | 1.0 | . | 0.72
Cc1ccc(OCC(=O)Nc2ccc(N3CCN(C(=O)c4ccc(C)cc4)CC3)cc2)cc1 | 0.8 | -0.4 | 3% | -1.8 | -0.3 | . | 0.69
COc1ccc(N2CCN(S(=O)(=O)CCNC(=O)Cc3ccc([N+](=O)[O-])cc3)CC2)cc1 | 0.2 | 0.9 | . | -0.1 | -2.5 | i | 0.69
CCOc1ccc(-c2c(C(=O)N/N=C(\C)c3cccs3)nnn2-c2nonc2N)cc1 | . | -0.6 | 0% | -2.1 | -1.9 | i | .
COc1ccc(C(=O)N[C@H](C(=O)OCc2nc3ccsc3c(=O)[nH]2)C(C)C)cc1 | -0.4 | 4.9 | 6% | -0.2 | -0.9 | i | 0.64
COC(=O)c1ccc(C(=S)N2CCCCC2)cc1 | . | -0.1 | 5% | -3.1 | -0.6 | i | .
Cc1cccc(N(C(=O)Cn2nnc3ccccc32)C(C(=O)NCc2ccco2)c2ccncc2)c1C (stereo unspecified) | 2.7 | . | 4.7µM* | 1.8 | 2.2 | . | 0.78
CC(=O)NC1=NN(C(C)=O)C2(S1)C(=O)N(C(C)C)c1ccc(C)cc12 (stereo unspecified) | 1.9 | . | 1% | ? | -3.1 | . | 0.72
COc1ccc(CC(NC(C)=O)C(=O)NC2CCN(c3c4c(nc5ncnn35)CCC4)CC2)cc1 (stereo unspecified) | 4.2 | . | 3% | -0.8 | 1.7 | . | 0.69
CCOC(=O)C1(Cc2ccccc2C#N)CCCCC1=O (stereo unspecified) | 1.7 | -5.4 | -7% | . | -4.5 | i | 0.71
CC(C)=CC(=O)Nc1nnc(C)s1 | 28* | . | . | 3.0 | -0.1 | . | 0.7
OCC[C@@H]1C[C@@H](O)[C@H](O)[C@@]2(OCc3ccccc32)O1 | 3.0 | -5.8 | . | 2.7 | -1.2 | i | .
CCN(CC)S(=O)(=O)c1cccc(NC(=O)CN2C(=O)c3ccc([N+](=O)[O-])cc3C2=O)c1 | 2.0 | 4.0 | . | ? | 1.5 | i | 0.69
COc1ccc(-c2oc3ccccc3c(=O)c2OCC(=O)O)cc1 | -260 | -3.3 | -9% | -1.5 | 2.7 | i | 0.68
N#Cc1ccc(-c2ccc(F)cc2)nc1Oc1ccccc1 | -82 | . | 10% | -3.1 | 1.0 | . | 0.73
CCC(C(=O)c1ccc(O)cc1)c1ccccc1 (stereo unspecified) | 4.4 | . | -5% | -3.6 | 1.9 | . | 0.64
CC(C)CCNc1nc2c(c(=O)[nH]c(=O)n2C)n1CC(O)COC(C)C (stereo unspecified) | 2.6 | . | 1% | 3.0 | -0.9 | . | 0.74
O=C(Cn1nc(-c2ccco2)ccc1=O)Nc1ccc(Cl)c(Cl)c1 | -22 | -3.4 | . | 1.2 | 2.1 | i | 0.65
Cn1c(CCN2CCCC2)nc2cc(NC(=O)COc3ccc(Cl)cc3)ccc21 | . | 1.6 | . | . | -0.6 | i | .
CC(CCc1ccccc1)NC(=O)CCNS(=O)(=O)c1ccccc1 (stereo unspecified) | 0.1 | -12 | -5% | -1.6 | -0.5 | i | 0.63
Cc1ccc(/C=C2/NC(=O)N(Cc3ccccc3F)C2=O)o1 | 1.6 | -50 | . | -1.0 | 6.3 | i | 0.71
Cc1nn(-c2ccc3nnc(Br)n3n2)c(C)c1Br | -1.7 | . | 11% | -1.6 | . | . | 0.68
COc1ccc(NC(=O)N2CCCC(C(=O)Nc3ccccc3OC)C2)cc1 (stereo unspecified) | 0.1 | 2.4 | . | 1.0 | 0.1 | i | 0.66
Cc1noc(C)c1NC(=O)N(C)C[C@H]1Oc2c(NC(=O)C3CC3)cccc2C(=O)N([C@H](C)CO)C[C@@H]1C | 2.6 | -1.3&-0.5 | . | . | -3.6 | i | 0.81
CCOC(=O)c1c(C)[nH]c(C(=O)COC(=O)c2ccc([N+](=O)[O-])o2)c1C | -0.3 | -1.8 | 1% | . | 7.1 | i | 0.71
COc1cccc(CC(=O)Nc2cc(S(=O)(=O)N3CCCCC3)ccc2C)c1 | 1.0 | -0.9 | . | . | -1.4 | i | 0.7
COc1ccccc1CNC(=O)c1cc(-c2ccccc2C)nn1CC1CC(c2cccnc2)=NO1 (stereo unspecified) | 0.8 | . | . | . | 4.7 | . | 0.72
Cc1cc(C)c(C(=O)COC(=O)c2c(C)noc2C)cc1C | 2.1 | -6.8 | 7% | . | 1.9 | i | 0.69
N#Cc1cc[n+](CC(=O)c2ccc(NC(=O)c3ccccc3)cc2)cc1 | . | -32 | -58% | 2.0 | 4.5 | i | .
O=C1OC(/C=C/c2ccccc2)=NC/1=C\c1cccnc1 | . | . | -1% | -1.8 | -2.0 | . | .
COCCCn1cnc2c(c1=O)c1nc3ccccc3nc1n2CCc1ccccc1 | -237 | . | -9% | -0.3 | -1.0 | . | 0.71
O=C1CSc2ccc(C(=O)N3CCN(c4ccccn4)CC3)cc2N1 | 2.9 | . | -1% | 2.2 | -0.8 | . | 0.63
CCN(C(=O)C(=O)c1c[nH]c2ccccc12)c1ccccc1 | 4.1 | 2.0 | . | 5.1 | -4.4 | i | 0.61
CCOC(=O)c1c(C(=O)OCC)c(C)n(CCc2ccccc2)c1C | 3.0 | . | -6% | 0.0 | 0.8 | . | 0.67

Reprinted from the part before: 2 entries, followed by the next part.
SMILES | UCH37 inh | AF4-AF9 inh | Vif A3G | RanGTP-Impb inh | HNF4A DNA FP | FGF22 binding | Ecoli growth
CCN(C(=O)C(=O)c1c[nH]c2ccccc12)c1ccccc1 | 4.1 | 2.0 | . | 5.1 | -4.4 | i | 0.61
CCOC(=O)c1c(C(=O)OCC)c(C)n(CCc2ccccc2)c1C | 3.0 | . | -6% | 0.0 | 0.8 | . | 0.67
CCn1ccnc1CN(C)C(=O)c1ccc2nc(Cc3ccc(OC)cc3)oc2c1 | 5.6 | 2.4 | . | -2.2 | -3.4 | + | 0.66
NNC(=O)CCN1CCN(Cc2ccccc2)CC1 | 3.3 | 4.2 | 6% | 3.0 | -2.7 | i | 0.69
O=C(Cn1nnc(-c2ccc([N+](=O)[O-])cc2)n1)NNC(=O)c1ccccc1 | 4.2 | . | . | 9.6 | -2.7 | . | 0.68
CCC1(C)Cc2c(sc3nnn(CC(=O)Nc4ccc(C)cc4)c(=O)c23)CO1 (stereo unspecified) | 3.2 | . | 0% | -8.6 | -0.7 | . | 0.62
COc1ccc2oc(C(=O)CCC(=O)O)c(N)c2c1 | -16 | 11 | 3% | 0.0 | -2.0 | i | 0.77
Cc1cc(C)c[n+](-c2nc([O-])sc2C=O)c1 | 7.1 | . | 4% | -2.7 | -2.8 | . | 0.77
CCOc1ccc(C(C)=O)cc1COC(=O)C(C)N=C1NS(=O)(=O)c2ccccc21 (stereo unspecified) | 2.6 | 2.8 | . | 2.6 | 3.8 | i | 0.67

A portion from the list above, for reference:
SMILES | UCH37 inh | AF4-AF9 inh | Vif A3G | RanGTP-Impb inh | HNF4A DNA FP | FGF22 binding | Ecoli growth
O=C(Cn1nnc(-c2ccc([N+](=O)[O-])cc2)n1)NNC(=O)c1ccccc1 | 4.2 | . | . | 9.6 | -2.7 | . | 0.68
CCC1(C)Cc2c(sc3nnn(CC(=O)Nc4ccc(C)cc4)c(=O)c23)CO1 (stereo unspecified) | 3.2 | . | 0% | -8.6 | -0.7 | . | 0.62
COc1ccc2oc(C(=O)CCC(=O)O)c(N)c2c1 | -16 | 11 | 3% | 0.0 | -2.0 | i | 0.77
Cc1cc(C)c[n+](-c2nc([O-])sc2C=O)c1 | 7.1 | . | 4% | -2.7 | -2.8 | . | 0.77

The list is partial (hit frequency here may not be typical).
